Vaccinia inh: Vaccinia orthopox stage-specific inhibition | Vaccinia-infected cells, mCherry/Venus stage reporter fluorescence; active compounds read low; some inactives read as strong as hits | activity change (mCherry), % (concentration not given with the values) | 0.01% of 89,000 active | AID 1053133;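 active = mCherry past -33% and 40 or more points under the early reporter, replicates agreeing; inconclusive = past -33% without that gap or agreement; tested in A549 cells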;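 note: scaled between vehicle wells and reference inhibitor wells; 23 nL library stock went into each well; one replicate is shown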
Vaccinia inh Venus: further read-out of Vaccinia inh, marked with its call; activity change (Venus), %; measured here: Venus reporter, other viral stage;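 negative = less Venus signal; first of two replicates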
* = called active by the depositor; & = joins results of further samples.

Results for CCS(=O)(=O)N[C@@H]1C=C[C@H](CC(=O)NCc2ccc(Cl)cc2)O[C@H]1CO ?
Vaccinia inh: 18.6; Vaccinia inh Venus: 22.2

Results for O=C(C[C@@H]1CC[C@@H]2[C@H](COC[C@@H](O)CN2Cc2cc(F)ccc2F)O1)NCc1ccc(F)cc1 ?
Vaccinia inh: -3.1; Vaccinia inh Venus: 1.1

Results for O=C(c1ccc2c(c1)OCO2)N1C[C@@H]2[C@H](c3ccccc31)[C@@H](CO)N2Cc1ccc2c(c1)OCO2 ?
Vaccinia inh: -1.5; Vaccinia inh Venus: 0.2

Results for C[C@@H]1CN([C@@H](C)CO)C(=O)c2cc(C#CCc3ccccc3)cnc2O[C@H]1CN(C)C(=O)C1CC1 ?
Vaccinia inh: 21.2; Vaccinia inh Venus: 6.5

What do the screens show for `C[C@H](CO)N1C[C@H](C)[C@H](CN(C)C)Oc2ccc(NS(C)(=O)=O)cc2C1=O`?
Vaccinia inh: 20.2; Vaccinia inh Venus: 8.7

What do the screens show for `CCCNC(=O)C[C@H]1CC[C@H]2[C@@H](COC[C@H](O)CN2C(=O)Nc2ccccc2OC)O1`?
Vaccinia inh: -4.5; Vaccinia inh Venus: -3.3

What do the screens show for `C[C@@H]1CN([C@H](C)CO)C(=O)c2cc(NC(=O)c3ccncc3)ccc2O[C@@H](C)CCCCO[C@H]1CN(C)C(=O)Nc1ccc(C(F)(F)F)cc1`?
Vaccinia inh: -11.9; Vaccinia inh Venus: -17.7

Results for C[C@H]1CN([C@@H](C)CO)C(=O)c2cc(C#CCN(C)C)cnc2O[C@@H]1CN(C)C(=O)c1ccc(F)cc1 ?
Vaccinia inh: 24.0; Vaccinia inh Venus: 13.1

How did CCCC#Cc1ccc([C@@H]2[C@@H](CO)N3CCCCN(Cc4cncnc4)C[C@@H]23)cc1 do in these assays?
Vaccinia inh: -1.6; Vaccinia inh Venus: 4.4

Results for CC(C)CC#Cc1ccc2c(c1)O[C@H](CN(C)Cc1cccnc1)[C@H](C)CN([C@H](C)CO)S2(=O)=O ?
Vaccinia inh: inconclusive

Results for CO[C@H](CN(C)S(=O)(=O)c1ccc(Cl)cc1)[C@@H](C)CN([C@H](C)CO)S(=O)(=O)c1cccc(Cl)c1 ?
Vaccinia inh: inconclusive

Results for Cc1ccc(S(=O)(=O)Nc2ccc3c(c2)C(=O)N([C@@H](C)CO)C[C@@H](C)[C@@H](CN(C)Cc2ccc(C(F)(F)F)cc2)OCCCC[C@H](C)O3)cc1 ?
Vaccinia inh: -17.9; Vaccinia inh Venus: -10.5

Results for C[C@@H]1CN([C@@H](C)CO)C(=O)Cc2cc(NC(=O)c3ccncc3)ccc2O[C@H]1CN(C)S(=O)(=O)c1ccccc1 ?
Vaccinia inh: 4.7; Vaccinia inh Venus: 0.8

What do the screens show for `C[C@H](CO)N1C[C@H](C)[C@H](CN(C)Cc2ccc(C(F)(F)F)cc2)Oc2ccc(NC(=O)CCC(F)(F)F)cc2C1=O`?
Vaccinia inh: -13.2; Vaccinia inh Venus: -12.5

How did O=C(Nc1ccccc1F)N[C@H]1CC[C@@H](CCNS(=O)(=O)c2ccccc2)O[C@H]1CO do in these assays?
Vaccinia inh: -6.3; Vaccinia inh Venus: -8.3

What do the screens show for `COc1ccccc1CN1[C@H](CO)[C@@H]2c3ccccc3N(C(=O)c3cccnc3)C[C@@H]21`?
Vaccinia inh: 10.4; Vaccinia inh Venus: 3.2

Results for C[C@H](CO)N1C[C@H](C)[C@H](CN(C)Cc2ccccc2)Oc2ncc(Br)cc2C1=O ?
Vaccinia inh: 19.7&-0.1&25.0; Vaccinia inh Venus: 9.9&0.4&9.3

How did COCC(=O)Nc1ccc2c(c1)C(=O)N(C)C[C@H](OC)[C@@H](C)CN(Cc1ccncc1)[C@H](C)CO2 do in these assays?
Vaccinia inh: 12.4; Vaccinia inh Venus: 13.0

How did CN(C)CCCNC(=O)C[C@H]1C=C[C@@H](NS(=O)(=O)c2ccc(F)cc2)[C@H](CO)O1 do in these assays?
Vaccinia inh: 18.6; Vaccinia inh Venus: 11.2

Results for O=C(C[C@H]1CC[C@@H]2[C@H](COC[C@H](O)CN2Cc2cc(F)cc(F)c2)O1)NCc1cccc(F)c1 ?
Vaccinia inh: -8.1; Vaccinia inh Venus: -11.2

What do the screens show for `CO[C@@H]1CN(C)C(=O)c2ccc(NC(=O)C3CC3)cc2OC[C@@H](C)N(Cc2ccccc2)C[C@@H]1C`?
Vaccinia inh: -0.9; Vaccinia inh Venus: 3.4

How did CCCNC(=O)N(C)C[C@H]1Oc2ncc(-c3ccccc3)cc2C(=O)N([C@@H](C)CO)C[C@H]1C do in these assays?
Vaccinia inh: -0.4; Vaccinia inh Venus: -4.6

What do the screens show for `C[C@H](CO)N1C[C@H](C)[C@@H](CN(C)CC2CC2)Oc2ccc(NS(=O)(=O)c3ccc(F)cc3)cc2C1=O`?
Vaccinia inh: 12.5; Vaccinia inh Venus: -4.8

What do the screens show for `Cc1noc(C)c1S(=O)(=O)Nc1ccc2c(c1)C(=O)N([C@@H](C)CO)C[C@@H](C)[C@@H](CN(C)C(=O)C1CCCCC1)OCCCC[C@@H](C)O2`?
Vaccinia inh: -19.4; Vaccinia inh Venus: -27.6

How did C[C@@H]1CCCCO[C@H](CN(C)C(=O)Nc2ccccc2)[C@H](C)CN([C@H](C)CO)C(=O)c2cc(NS(=O)(=O)c3cn(C)cn3)ccc2O1 do in these assays?
Vaccinia inh: 17.2; Vaccinia inh Venus: 9.6

How did CO[C@H]1CN(C)C(=O)c2ccc(NC(C)=O)cc2OC[C@H](C)N(Cc2ccccc2C(=O)O)C[C@H]1C do in these assays?
Vaccinia inh: 15.5; Vaccinia inh Venus: 9.8

What do the screens show for `O=C(C[C@@H]1CC[C@@H](NC(=O)C2CC2)[C@H](CO)O1)NC1CCC1`?
Vaccinia inh: -1.9; Vaccinia inh Venus: 3.7

How did COCC(=O)N(C)C[C@@H]1Oc2cc(-c3ccccc3F)ccc2S(=O)(=O)N([C@H](C)CO)C[C@@H]1C do in these assays?
Vaccinia inh: -11.4; Vaccinia inh Venus: -10.0

Results for C[C@@H]1CN([C@@H](C)CO)S(=O)(=O)c2ccc(C#CCN(C)C)cc2O[C@@H]1CN(C)Cc1ccccn1 ?
Vaccinia inh: 4.4; Vaccinia inh Venus: 0.4

How did CCC(=O)Nc1ccc2c(c1)C(=O)N(C)C[C@H](OC)[C@H](C)CN(C(=O)c1ccccn1)[C@@H](C)CO2 do in these assays?
Vaccinia inh: -1.4; Vaccinia inh Venus: -4.2

How did CO[C@H]1CN(C)C(=O)c2cc(NS(=O)(=O)CC(F)(F)F)ccc2OC[C@@H](C)N(Cc2cccnc2)C[C@@H]1C do in these assays?
Vaccinia inh: 14.1; Vaccinia inh Venus: 10.6

What do the screens show for `CCCC(=O)Nc1ccc2c(c1)OC[C@H](C)N(C(=O)c1ccccn1)C[C@@H](C)[C@H](OC)CN(C)C2=O`?
Vaccinia inh: 6.5; Vaccinia inh Venus: 1.3

How did C[C@H](CO)N1C[C@H](C)[C@H](CN(C)S(=O)(=O)c2cccc(F)c2)Oc2ncc(-c3cccc(C(F)(F)F)c3)cc2C1=O do in these assays?
Vaccinia inh: inconclusive

Results for C[C@@H]1CN([C@H](C)CO)C(=O)c2cc(NC(=O)C3CCCCC3)ccc2O[C@@H]1CN(C)C ?
Vaccinia inh: -0.8; Vaccinia inh Venus: 0.9

How did C[C@@H]1CCCCO[C@H](CN(C)S(=O)(=O)c2cn(C)cn2)[C@H](C)CN([C@@H](C)CO)C(=O)c2cc(NS(=O)(=O)c3cn(C)cn3)ccc2O1 do in these assays?
Vaccinia inh: 15.4; Vaccinia inh Venus: -3.5

Results for C/C=C/c1ccc2c(c1)O[C@H](CN(C)C(=O)c1ccccc1F)[C@H](C)CN([C@@H](C)CO)S2(=O)=O ?
Vaccinia inh: 3.2; Vaccinia inh Venus: 3.4

How did O=C(C1CC1)N1CCCCN2[C@H](CO)[C@H](c3ccc(C#CC4CCCC4)cc3)[C@H]2C1 do in these assays?
Vaccinia inh: inconclusive

What do the screens show for `Cc1ccccc1S(=O)(=O)N(C)C[C@@H]1OCc2ccccc2-c2ccccc2C(=O)N([C@@H](C)CO)C[C@H]1C`?
Vaccinia inh: inconclusive

Results for O=C(C[C@@H]1CC[C@H](NC(=O)c2ccncc2)[C@@H](CO)O1)Nc1ccccc1 ?
Vaccinia inh: 5.9; Vaccinia inh Venus: 11.7

What do the screens show for `C[C@H]1CN([C@@H](C)CO)C(=O)c2cc(-c3ccccc3)cnc2O[C@@H]1CN(C)C(=O)C1CCOCC1`?
Vaccinia inh: 14.5; Vaccinia inh Venus: 1.5

What do the screens show for `O=C(Nc1ccc2c(c1)[C@H]1C[C@H](CC(=O)N3CCCCC3)O[C@H](CO)[C@H]1O2)Nc1ccccc1F`?
Vaccinia inh: 7.3; Vaccinia inh Venus: 3.6

What do the screens show for `O=C(NCC[C@@H]1CC[C@@H](NC(=O)C2CCC2)[C@@H](CO)O1)c1ccc(F)cc1`?
Vaccinia inh: 5.2; Vaccinia inh Venus: 2.8

What do the screens show for `COc1cccc(S(=O)(=O)Nc2ccc3c(c2)C(=O)N(C)C[C@H](OC)[C@@H](C)CN(C(=O)Cc2cccnc2)[C@@H](C)CO3)c1`?
Vaccinia inh: 25.7; Vaccinia inh Venus: 9.0

Results for C[C@H]1CN([C@@H](C)CO)C(=O)c2cc(NC(=O)Nc3cccc4ccccc34)ccc2O[C@@H]1CN(C)S(=O)(=O)c1ccccc1 ?
Vaccinia inh: 1.7; Vaccinia inh Venus: 4.8

Results for CN(C)C(=O)c1cccc(-c2ccc3c(c2)[C@H]2[C@H](CCN2C(=O)c2ccncc2)[C@H](CO)N3C)c1 ?
Vaccinia inh: 17.8; Vaccinia inh Venus: 8.4

How did CNC(=O)C[C@H]1CC[C@H]2[C@@H](COc3ccc(NC(=O)Nc4cccc(C#N)c4)cc3C(=O)N2C)O1 do in these assays?
Vaccinia inh: -1.6; Vaccinia inh Venus: -4.6

Results for COc1ccc(NC(=O)Nc2ccc3c(c2)C(=O)N([C@H](C)CO)C[C@H](C)[C@H](CN(C)C(=O)Nc2cccc4ccccc24)OCCCC[C@@H](C)O3)cc1 ?
Vaccinia inh: 24.0; Vaccinia inh Venus: 22.6

Results for COc1ccc(S(=O)(=O)Nc2ccc3c(c2)C(=O)N([C@H](C)CO)C[C@@H](C)[C@@H](CN(C)C(=O)CCC(F)(F)F)OCCCC[C@H](C)O3)cc1 ?
Vaccinia inh: 6.4; Vaccinia inh Venus: 12.0

How did CN1c2ccc(-c3ccccc3)cc2[C@H]2[C@H](CCN2C(=O)CN2CCOCC2)[C@@H]1CO do in these assays?
Vaccinia inh: 7.3; Vaccinia inh Venus: 1.8

How did CC(=O)N1[C@@H](CO)[C@@H]2c3ccccc3N(S(=O)(=O)c3ccccc3C)C[C@@H]21 do in these assays?
Vaccinia inh: 9.7; Vaccinia inh Venus: -2.9

In the list so far, these have an aryl methoxy group.
What do the screens show for `CCCNC(=O)C[C@H]1CC[C@H]2[C@@H](COC[C@H](O)CN2C(=O)Nc2ccccc2OC)O1`?
Vaccinia inh: -4.5; Vaccinia inh Venus: -3.3

What do the screens show for `COc1ccccc1CN1[C@H](CO)[C@@H]2c3ccccc3N(C(=O)c3cccnc3)C[C@@H]21`?
Vaccinia inh: 10.4; Vaccinia inh Venus: 3.2

What do the screens show for `COc1cccc(S(=O)(=O)Nc2ccc3c(c2)C(=O)N(C)C[C@H](OC)[C@@H](C)CN(C(=O)Cc2cccnc2)[C@@H](C)CO3)c1`?
Vaccinia inh: 25.7; Vaccinia inh Venus: 9.0

Results for COc1ccc(NC(=O)Nc2ccc3c(c2)C(=O)N([C@H](C)CO)C[C@H](C)[C@H](CN(C)C(=O)Nc2cccc4ccccc24)OCCCC[C@@H](C)O3)cc1 ?
Vaccinia inh: 24.0; Vaccinia inh Venus: 22.6

Results for COc1ccc(S(=O)(=O)Nc2ccc3c(c2)C(=O)N([C@H](C)CO)C[C@@H](C)[C@@H](CN(C)C(=O)CCC(F)(F)F)OCCCC[C@H](C)O3)cc1 ?
Vaccinia inh: 6.4; Vaccinia inh Venus: 12.0

(cont.)
What do the screens show for `C[C@H]1CN([C@@H](C)CO)C(=O)c2cccc(NC(=O)Nc3ccc(C(F)(F)F)cc3)c2O[C@H]1CN(C)C(=O)NC1CCCCC1`?
Vaccinia inh: inconclusive

Results for COc1cccc(CNC(=O)C[C@H]2CC[C@@H](NC(=O)C3CCOCC3)[C@H](CO)O2)c1 ?
Vaccinia inh: 5.6; Vaccinia inh Venus: 17.6

What do the screens show for `C[C@H](CO)N1C[C@H](C)[C@@H](CN(C)S(=O)(=O)c2ccc(Cl)cc2)OCCCC[C@H](C)Oc2ccc(NS(=O)(=O)c3cccs3)cc2C1=O`?
Vaccinia inh: inconclusive

How did CCNC(=O)Nc1ccc2c(c1)C(=O)N(C)[C@@H]1CC[C@@H](CC(=O)N[C@@H](C)c3ccccc3)O[C@H]1CO2 do in these assays?
Vaccinia inh: -4.2; Vaccinia inh Venus: -10.4

What do the screens show for `COc1ccc(S(=O)(=O)N(C)C[C@H]2Oc3ccc(NS(=O)(=O)c4c(C)noc4C)cc3CC(=O)N([C@H](C)CO)C[C@@H]2C)cc1`?
Vaccinia inh: 10.2; Vaccinia inh Venus: 6.0

How did CC(=O)N1C[C@H]2[C@@H](c3ccccc31)[C@H](CO)N2C(=O)Nc1ccc(F)cc1 do in these assays?
Vaccinia inh: 1.4; Vaccinia inh Venus: 12.3

Results for COc1ccc(NC(=O)N(C)C[C@H]2OCCCC[C@@H](C)Oc3ccc(NS(C)(=O)=O)cc3C(=O)N([C@H](C)CO)C[C@@H]2C)cc1 ?
Vaccinia inh: 22.0; Vaccinia inh Venus: 13.6

How did CN(C)C(=O)c1ccc(-c2ccc([C@H]3[C@@H](CO)N4CCCCN(CC5CC5)C[C@H]34)cc2)cc1 do in these assays?
Vaccinia inh: 19.9; Vaccinia inh Venus: 6.8

How did C[C@H]1CN([C@@H](C)CO)C(=O)c2cccc(NC(=O)c3ccc(-c4nccs4)cc3)c2O[C@H]1CN(C)S(=O)(=O)c1ccc(Cl)cc1 do in these assays?
Vaccinia inh: 6.7; Vaccinia inh Venus: 5.7

Assay outcomes: PubChem, Broad Institute

A portion of the library; count on the stated rates, not on these rows.
